# LANA-H2A inh: blocks KSHV LANA binding to histone H2A/H2B. Q9QR71. cell-free LANA-H2A/H2B peptide, fluorescence polarization. inhibition, % (test concentration not listed). 0.6% of 320,000 active. AID 2629; in the data active means inhibition mostly above about 10%, no sharp cut-off; inactive means mostly below about 6.7%;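 further: stock transfer was 7.5 nL into about 10 µL; 0% = median of vehicle wells and 100% = median of positive control wells; one replicate is shown; the record names a cut of 25% in any replicate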
# Target sequence (Q9QR71 whole entry, looked up): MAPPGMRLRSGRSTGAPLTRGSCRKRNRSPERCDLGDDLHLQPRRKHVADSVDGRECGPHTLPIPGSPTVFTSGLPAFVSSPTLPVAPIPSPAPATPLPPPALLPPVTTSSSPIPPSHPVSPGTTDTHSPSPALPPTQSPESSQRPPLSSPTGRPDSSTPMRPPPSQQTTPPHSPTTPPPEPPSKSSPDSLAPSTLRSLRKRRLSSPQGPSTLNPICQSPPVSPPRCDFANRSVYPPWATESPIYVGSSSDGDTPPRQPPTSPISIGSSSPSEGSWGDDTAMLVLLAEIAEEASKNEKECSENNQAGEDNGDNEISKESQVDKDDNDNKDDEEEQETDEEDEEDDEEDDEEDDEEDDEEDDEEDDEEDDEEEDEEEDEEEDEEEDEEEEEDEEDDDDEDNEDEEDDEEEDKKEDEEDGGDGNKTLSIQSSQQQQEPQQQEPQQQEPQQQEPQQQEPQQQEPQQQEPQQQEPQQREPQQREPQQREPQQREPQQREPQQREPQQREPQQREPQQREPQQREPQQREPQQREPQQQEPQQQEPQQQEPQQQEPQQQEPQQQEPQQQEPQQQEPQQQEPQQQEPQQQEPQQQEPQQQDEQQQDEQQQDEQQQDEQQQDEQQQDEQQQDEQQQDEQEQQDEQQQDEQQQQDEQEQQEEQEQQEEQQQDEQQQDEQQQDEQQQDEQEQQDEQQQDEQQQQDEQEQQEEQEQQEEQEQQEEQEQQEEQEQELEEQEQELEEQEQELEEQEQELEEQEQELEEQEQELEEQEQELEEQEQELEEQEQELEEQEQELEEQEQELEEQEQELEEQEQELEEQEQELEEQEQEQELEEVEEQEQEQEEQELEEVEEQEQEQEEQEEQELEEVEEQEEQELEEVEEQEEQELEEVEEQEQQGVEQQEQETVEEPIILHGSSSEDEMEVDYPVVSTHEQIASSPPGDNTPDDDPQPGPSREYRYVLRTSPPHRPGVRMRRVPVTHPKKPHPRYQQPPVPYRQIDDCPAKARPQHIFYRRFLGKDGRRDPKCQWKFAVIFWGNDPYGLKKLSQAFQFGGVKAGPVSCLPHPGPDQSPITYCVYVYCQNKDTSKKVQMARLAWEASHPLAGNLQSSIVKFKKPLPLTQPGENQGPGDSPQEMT
# HNF4A DNA FP: change in binding of human HNF4 alpha to DNA | HNF4a-FITC DNA binding, fluorescence polarization, 1 h | P41235 | activity change, % at 10 µM | 0.3% of 360,000 active | AID 1224865; in the data active means activity change above about 30%, passing the limit was not always enough;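 further: controls were the assay level and a saturating level of protein; the project sought stronger binding though the title names inhibitors; some compounds called inactive have numbers as strong as hits; positive values seem to mean higher polarization but the record does not say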
# Vif A3G: inhibitors of Vif binding to APOBEC3G peptide, primary screen, biochemical, TR-FRET, GST-Vif 1-94, biotin-A3G peptide, dose response retest (AID 1117319); 0.57% of 260,000 active; TR-FRET GST-Vif / biotin-A3G peptide binding; higher % means a stronger effect; test concentration not given here; strong numbers were not always called active; inhibition, %; hits with a dose series show IC50 in µM;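 active means above the screen mean plus three standard deviations and confirmed in dose response; inconclusive means results disagree or hit not tested in dose response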;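 further: Vif residues 1-94 fused to GST binding biotinylated APOBEC3G peptide 110-148; 0% = full assay without inhibitor and 100% = GST in place of GST-Vif; retest series ran down from 100 µM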
# RanGTP-Impb inh: inhibitors of RanGTP-importin-beta interaction, primary screen, biochemical, FRET, CFP-Ran, YFP-importin-beta, homogeneous; cell-free CFP-Ran/YFP-importin-beta FRET ratio; inhibition, % (test concentration not listed); 1.1% of 300,000 active; AID 2216;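 active means most replicates above 15%; inconclusive means exactly half above 15%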;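 further: 0% = DMSO wells and 100% = Ran loaded with GDP instead of GTP; wells of about 40 µL received 100 nL stock; the first replicate is given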
# ALR inh: inhibitors of human sulfhydryl oxidase ALR; P55789; purified ALR, DTT oxidation, H2O2 HRP-luminol luminescence; inhibition, % (concentration not given with the values); 3.8% of 290,000 active;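 active means mean and each replicate at 75% or more; inconclusive means only one of the two met; inactive means neither met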;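 further: stock transfer was 7.5 nL into about 7.5 µL; 0% = neutral wells and 100% = wells with inactivated enzyme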
# Calb FLC: C. albicans growth modulation with fluconazole | growth inhibition, % (no concentration beside the values) | 0.57% of 300,000 active | C. albicans CaCi-2 (fluconazole-resistant clinical isolate) + fluconazole, Alamar Blue growth, 48 h;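 active means most replicates above 75%; inconclusive means exactly half above 75%; inactive means most below 75%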;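 further: all wells also contain fluconazole at 8 µg/ml as a sub-toxic cotreatment; 0% = median of DMSO wells and 100% = median of geldanamycin control wells; wells of about 8 µL received 7.5 nL stock; the first replicate is given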
# B2AR ag: activates human beta-2 adrenergic receptor causing internalization; Am2.2-beta2AR cells, FAP receptor internalization, flow cytometry; reference of the scale not given here; response, % (test concentration not listed); 0.43% of 340,000 active;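 active means response above a set limit, near 3 SD of response in nonfluorescent compounds, cut at about 42% in these data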;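 further: stock transfer was 100 nL into about 11 µL; a reference agonist was the positive control; negative values mostly stem from fluorescent compounds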
# The depositor's hits bear a star; ? = inconclusive; / = no result given. Compounds were not picked by outcome. Share with any hit: about 6.3%.
# Second line of a record – LANA-H2A inh, HNF4A DNA FP, Vif A3G, RanGTP-Impb inh, ALR inh, Calb FLC, B2AR ag
(1) O=C(COC(=O)c1ccc2c(c1)C(=O)N(Cc1ccncc1)C2=O)Nc1ccccc1[N+](=O)[O-]
    -0.8, -0.8, ?, 3.5, -0.6, -7.4, -7.2
(2) COc1cccc(-c2nnc(SCN3C(=O)c4ccccc4C3=O)n2C)c1
    -5.0, 0.3, 6.8%, 0.5, -1.6, -1.1, -25.6
(3) CCOC(=O)CSc1ccc(C(=O)Nc2ccc(OC)cc2)cn1
    2.0, 1.1, /, 6.1, -9.8, 0.3, -3.8
(4) COC(=O)c1cccc(CN2C(=O)SC(Nc3ccccc3)C2=O)c1 (stereo not given)
    1.3, -20.8, 15.3%, 2.4, /, 0.6, -5.7
(5) O=C(CSc1ccc(-c2ccccc2)nn1)N1CCN(c2ccccc2)CC1
    0.6, 4.1, /, -50.8, -0.1, 0.0, -3.8
(6) CCOc1ccc(N2C(=O)c3ccc(C(=O)OCC(=O)N(CC)C4CCS(=O)(=O)C4)cc3C2=O)cc1 (stereo not given)
    -0.1, 0.7, 7.7%, 2.0, -1.8, -17.8, 0.1
(7) O=C(NCCc1ccccc1)c1cnc2ccccc2n1
    -3.4, -1.4, -11.1%, 5.2, /, -2.9, 4.0
(8) CC(C)N(Cc1ccccc1)C(=O)CSc1nccn1C
    -1.8, -3.6, 19.1%, -1.0, 31.0, -15.5, 14.2
(9) CC(NC(=O)COC(=O)C1CCC1)c1ccccc1 (stereo not given)
    -1.6, 0.7, -0.2%, -0.9, -1.1, 2.1, -5.1
(10) C=CCC1(CC=C)CCCN1C(=O)c1cc(COc2ccc(-n3cncn3)cc2)on1
    -0.1, 3.0, /, -0.4, 0.8, -0.3, 4.7
(11) Cc1ccc(CC(=O)Nc2nnc(-c3ccc(F)cc3)o2)c(C)c1
    2.8, -1.6, -0.7%, 1.5, -25.1, -2.6, -1.4
(12) Cc1ccc(NC(=O)c2sccc2C)cc1[N+](=O)[O-]
    -1.1, -1.0, 9.6%, 0.8, 0.8, -2.8, -1.5
(13) CN(C)c1cc(Nc2cccc(O)c2)c([N+](=O)[O-])c2nonc12
    2.2, -0.2, -10.7%, -2.3, -67.8, -0.4, 1.8
(14) CC(C)C[C@H](NC(=O)N1CCn2c1nc1ccccc12)C(=O)N[C@@H](Cc1ccccc1)C(=O)O
    -3.4, -4.7, /, 2.8, -0.2, 1.9, -0.1
(15) FC(F)(F)c1nnc(-c2ccccc2)nc1N1CCOCC1
    -1.3, 9.3, 0.8%, 5.5, -1.5, 22.5, 13.3
(16) CCOc1ccc(S(=O)(=O)N(CC)CC(=O)NC2CCS(=O)(=O)C2)cc1 (stereo not given)
    1.7, -0.5, /, /, 1.7, /, -7.0
(17) COc1ccc(CNC(=O)C2CCN(S(=O)(=O)N3CCCCC3)CC2)cc1
    -1.8, 1.2, 3.3%, -1.2, -5.3, -3.0, 2.5
(18) O=C(OCCOc1cccc(Cl)c1)C1CCN(S(=O)(=O)c2ccccc2)CC1
    -6.5, 1.5, /, 1.0, 3.7, -10.2, 8.0
(19) OC(CN1CCN(c2ccccc2Cl)CC1)c1ccccc1 (stereo not given)
    -2.0, -1.7, /, -2.8, -3.6, 9.2, 2.0
(20) Cc1nnc(SCCn2c(N3CCCCC3)nc3c2c(=O)[nH]c(=O)n3C)s1
    -2.4, -3.7, 0.6%, 0.4, 4.3, 22.4, -13.1

# Another view of four compounds above:
20	Cc1nnc(SCCn2c(N3CCCCC3)nc3c2c(=O)[nH]c(=O)n3C)s1
  LANA-H2A inh = -2.4; HNF4A DNA FP = -3.7; Vif A3G = 0.6%; RanGTP-Impb inh = 0.4; ALR inh = 4.3; Calb FLC = 22.4; B2AR ag = -13.1
2	COc1cccc(-c2nnc(SCN3C(=O)c4ccccc4C3=O)n2C)c1
  LANA-H2A inh = -5.0; HNF4A DNA FP = 0.3; Vif A3G = 6.8%; RanGTP-Impb inh = 0.5; ALR inh = -1.6; Calb FLC = -1.1; B2AR ag = -25.6
9	CC(NC(=O)COC(=O)C1CCC1)c1ccccc1 (stereo not given)
  LANA-H2A inh = -1.6; HNF4A DNA FP = 0.7; Vif A3G = -0.2%; RanGTP-Impb inh = -0.9; ALR inh = -1.1; Calb FLC = 2.1; B2AR ag = -5.1
14	CC(C)C[C@H](NC(=O)N1CCn2c1nc1ccccc12)C(=O)N[C@@H](Cc1ccccc1)C(=O)O
  LANA-H2A inh = -3.4; HNF4A DNA FP = -4.7; Vif A3G = /; RanGTP-Impb inh = 2.8; ALR inh = -0.2; Calb FLC = 1.9; B2AR ag = -0.1

# The listing continues:
# Second line of a record – LANA-H2A inh, HNF4A DNA FP, Vif A3G, RanGTP-Impb inh, ALR inh, Calb FLC, B2AR ag
(21) COc1cc(OC)c(N(C)C(=O)c2cc3c(s2)-c2ccccc2S(=O)(=O)C3)cc1Cl
    0.7, 0.8, 15.9%, -3.8, -2.6, -0.8, -1.1
(22) CN(C)c1nc(N(C)C)nc(N(C#N)CN2C(=O)c3ccccc3S2(=O)=O)n1
    -2.3, 1.5, -0.6%, 4.8, -0.9, -20.9, 2.9
(23) CN(C)c1ccc(C(=S)N2CCN(c3ccc([N+](=O)[O-])cc3)CC2)cc1
    5.1, -1.0, /, -0.3, -2.3, -6.4, 3.8
(24) CC(C)[C@H](NC(=O)OCc1ccccc1)C(=O)OCC(=O)c1ccccc1
    -2.2, 1.9, /, /, -1.1, /, -9.8
(25) CC(=O)Nc1ccc(NC(C)=C(C#N)C#N)cc1
    -2.4, 0.4, -0.2%, 3.7, -4.8, 12.9, -0.1
(26) CC(=O)c1sc(NC(=O)c2ccccc2)nc1-c1ccccc1
    -2.4, 1.6, -25.8%, -3.0, -3.4, 8.1, -11.7
(27) O=C(Cc1c(Cl)cccc1Cl)N/N=C/c1cccnc1
    3.0, -1.6, 4.8%, /, -12.4, -1.3, -4.0
(28) CCOC(=O)c1c(CN(C)C)oc2cc(CN(C)C)c(O)c(CSc3ccccc3)c12
    2.8, 0.3, 5.1%, ?, 35.5, 19.1, 3.2
(29) Cc1cccc(NC(=O)c2sc3nc4c(c(-c5ccco5)c3c2N)CCC4)c1
    -1.4, 10.1, 6.7%, -10.3, 7.3, -8.7, -14.4
(30) Cc1cc(C(=O)NC2CCCc3c2cnn3-c2cccc(C)c2C)c(C)o1 (stereo not given)
    -6.2, 0.1, /, 7.2, 7.7, 28.1, 1.9
(31) CCC(=O)N1CCCc2cc(S(=O)(=O)N3CCN(c4ccccn4)CC3)ccc21
    2.4, 1.3, ?, -1.5, -3.0, 5.2, -13.7
(32) COc1ccc(Cl)c(OC)c1C(=O)NC(=O)Nc1c(F)cc(F)cc1F
    5.9, -4.0, -7.2%, 2.5, 3.3, 0.5, -0.1
(33) CCOc1cc(C(=O)NCc2ccccc2)ccc1OCC(=O)N1CCOCC1
    -2.4, -6.0, /, -3.0, -12.3, 97.9*, 3.8
(34) COc1ccc(S(=O)(=O)NCc2ccccn2)cc1NC(=O)c1ccccc1
    -0.7, 0.9, /, -4.2, -4.1, 0.1, -14.3
(35) CC(C)CCCN1C(Nc2ccccc2)=NC[C@@H]1Cc1ccccc1
    2.0, 0.7, /, -2.3, 0.6, -18.9, -2.8
(36) COc1ccc(-c2[nH]nc3c2C(c2ccsc2)C(C#N)=C(N)O3)cc1 (stereo not given)
    1.0, -0.8, 8.0%, 7.2, 15.5, 20.6, 12.2
(37) CC(C)CCN(C)C1CCN(S(=O)(=O)c2ccc(F)cc2)CC1
    1.9, -1.0, 2.6%, -1.0, -0.5, -5.4, 0.4
(38) O=C(CN1CCN(Cc2ccc3c(c2)OCO3)CC1)c1c[nH]c2ccccc12
    -9.3, 5.8, -1.2%, 0.4, -3.5, -2.9, -0.1
(39) COc1ccc(CCNS(=O)(=O)c2cccc(C(=O)O)c2)cc1OC
    -5.1, 4.1, -3.0%, 1.3, -2.9, /, 2.4
(40) Cc1ccc([N+](=O)[O-])cc1NC(=O)c1ccc2c(c1)OCO2
    3.0, -2.7, 16.1%, 0.6, -2.1, ?, -1.6
(41) Cc1nc2sc3c(c2c(=O)o1)CC(C)(C)OC3
    -0.3, 2.2, -3.8%, 0.0, 0.9, -4.7, -1.5
(42) Cc1cc(Cl)ccc1OCC(=O)NCCC(=O)O
    3.6, -1.7, 4.3%, 1.6, -5.6, -2.9, -2.6
(43) Cc1nn(C)cc1-c1cc(C(=O)O)c2ccccc2n1
    1.5, 0.9, 4.1%, -4.9, /, 3.7, -1.3
(44) CSCC(C)N1CCC(CCC(=O)NC2CC2)CC1 (stereo not given)
    -5.1, 0.7, 0.4%, 5.1, -5.1, -2.4, -1.8
(45) COc1ccc(S(=O)(=O)N2CCOCC2)cc1NC(=O)COc1ncnc2ccccc12
    1.9, 3.6, -8.0%, -3.1, -3.6, -17.9, 3.4
(46) CC(=O)Nc1ccc(C(=O)N/N=C/c2ccccc2OC(=O)c2ccc(Cl)cc2)cc1
    -4.1, 1.3, -1.6%, -0.3, -20.3, -10.7, 3.3
(47) COc1cc(NC(=O)CSCC(=O)N(C)C2CCCCC2)cc(OC)c1
    -2.9, -1.9, 70.4%, /, -7.7, /, -0.2
(48) CCn1c(CNC(=O)c2ccco2)nnc1SCC(=O)Nc1ccc(Br)cc1F
    1.2, 1.0, 14.5%, -5.4, -5.4, -11.4, 0.5
(49) COC(=O)c1ccc(C2N=C(c3cccs3)CC(c3ccccc3O)N2)cc1 (stereo not given)
    -5.6, 2.7, 2.7%, -0.2, -10.7, 2.8, 7.0
(50) Nn1c(SCC(=O)NC2CCCc3ccccc32)nnc1C1CC1 (stereo not given)
    -1.0, 1.0, /, /, /, /, 21.7
(51) COc1ccc(NC(=O)C(NC(C)=O)C(=O)NCc2ccc(F)cc2)cc1 (stereo not given)
    -1.9, -0.1, 0.1%, -0.9, -5.5, 1.8, 4.7
(52) CCOC(=O)c1c(N)sc2c1CCC(C)C2 (stereo not given)
    -1.3, 4.3, 25.1%, 4.0, 12.0, 1.4, 7.3
(53) O=c1[nH]ccc2c([N+](=O)[O-])cccc12
    12.4, -1.6, /, -13.1, -11.4, 15.3, 1.3
(54) CCCN1CCN(CCNC(=O)Nc2cc(C)ccc2C)CC1
    0.9, -0.8, -3.3%, -0.6, -5.0, -9.8, -1.3
(55) Cc1cccc(C2=NN(c3ccc(Br)cc3)[C@@H](C(=O)N3CCOC3=O)[C@@H]2c2ccc(F)cc2)c1
    1.1, 4.8, 10.7%, 18.0*, -2.1, 12.2, 10.0
(56) CC1(C)Oc2cc3oc(=O)ccc3cc2C[C@@H]1O
    -8.6, -0.2, /, /, -0.7, /, -1.6

# An excerpt from above in order of the ALR inh value, rising.
nr	smiles	ALR inh
53	O=c1[nH]ccc2c([N+](=O)[O-])cccc12	-11.4
55	Cc1cccc(C2=NN(c3ccc(Br)cc3)[C@@H](C(=O)N3CCOC3=O)[C@@H]2c2ccc(F)cc2)c1	-2.1
56	CC1(C)Oc2cc3oc(=O)ccc3cc2C[C@@H]1O	-0.7
